# Assay outcomes as filed in PubChem.
# HNF4A DNA FP = change in binding of human HNF4 alpha to DNA. P41235. HNF4a-FITC DNA binding, fluorescence polarization, 1 h. activity change, % at 10 µM. 360,000 tested, 0.3% active. AID 1224865; in the data active = activity change above about 30%, passing the limit was not always enough;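 also: controls were the assay level and a saturating level of protein; the project sought stronger binding though the title names inhibitors; some compounds called inactive have numbers as strong as hits; positive values seem to mean higher polarization but the record does not say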
# Target sequence (P41235 whole entry, looked up): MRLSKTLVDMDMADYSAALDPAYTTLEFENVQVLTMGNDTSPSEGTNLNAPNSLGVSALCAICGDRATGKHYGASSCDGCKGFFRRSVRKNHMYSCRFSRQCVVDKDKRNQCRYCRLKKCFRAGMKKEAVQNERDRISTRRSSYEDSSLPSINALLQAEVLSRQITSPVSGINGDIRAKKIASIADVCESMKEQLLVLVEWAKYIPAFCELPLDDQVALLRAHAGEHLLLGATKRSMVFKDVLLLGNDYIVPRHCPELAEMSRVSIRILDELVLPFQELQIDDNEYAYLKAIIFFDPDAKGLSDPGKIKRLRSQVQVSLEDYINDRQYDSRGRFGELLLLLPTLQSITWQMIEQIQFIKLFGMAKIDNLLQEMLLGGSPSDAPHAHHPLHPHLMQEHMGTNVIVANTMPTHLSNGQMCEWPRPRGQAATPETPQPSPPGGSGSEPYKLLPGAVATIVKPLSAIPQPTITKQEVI
# RanGTP-Imp inh = inhibitors of RanGTP-importin-beta interaction, primary screen, biochemical, FRET, CFP-Ran, YFP-importin-beta, homogeneous | cell-free CFP-Ran/YFP-importin-beta FRET ratio | inhibition, % (test concentration not listed) | 300,000 tested, 1.1% active;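 active = most replicates above 15%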;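 also: 0% = DMSO wells and 100% = Ran loaded with GDP instead of GTP; wells of about 40 µL received 100 nL stock; the first replicate is given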
# Ecoli growth = E. coli growth inhibition; Escherichia coli growth, OD600, 23 h; stronger effect = lower value; 330,000 tested, 0.21% active; AID 1053175; OD600 absorbance (test concentration not listed);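 active = OD600 absorbance below the run mean of sample wells minus 3.6 SD, in any replicate, cut at about 0.56 in these data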;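 also: stock transfer was 300 nL into about 60 µL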
# MLL AF4-AF9 inh = blocks AF4 peptide binding to human AF9 | AlphaScreen, biotin-AF4 peptide binding to FLAG-AF9 | inhibition, % at 10 µM | 350,000 tested, 0.47% active | P42568;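 active = every replicate reaching a set inhibition limit, whatever the replicate mean, cut at about 25% in these data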;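 also: 0% = plate neutral control median and 100% = total signal loss; the record names both 10 and 1 µM as test concentration; the first replicate is given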
# FGF22 binding = shifts melting point of recombinant human FGF22 | 340,000 tested, 1.5% active | calls only at 9.99 µM | recombinant FGF22 thermal shift, SYPRO orange fluorescence; percent of sucrose octasulfate shift, DMSO zero;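 active = melting point raised past a set limit in the mean and every replicate; three in four hits are not shown here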
# Target sequence (Q9HCT0 whole entry, looked up): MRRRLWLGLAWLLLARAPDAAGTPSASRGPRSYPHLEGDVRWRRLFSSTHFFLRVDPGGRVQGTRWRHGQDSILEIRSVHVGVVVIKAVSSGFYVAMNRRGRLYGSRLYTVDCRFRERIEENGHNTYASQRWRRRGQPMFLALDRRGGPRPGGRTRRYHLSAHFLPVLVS
# UCH37 inh = human UCH37 deubiquitinating enzyme inhibition. AID 588478. Q9Y5K5. inhibition, % (no concentration beside the values). 330,000 tested, 0.33% active. purified proteasome/UCH37, Ub-AMC cleavage fluorescence;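 active = mean of two replicates above 20%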;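 also: 0% = compound-free wells with enzyme and 100% = wells lacking proteasome; stock transfer was 100 nL into about 20 µL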
#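 Material: Human UCH37 enzyme supplied as purified proteasome complex | Schedule: 30 min compound-proteasome preincubation then 25 min substrate reaction, room temperature | Detection: AMC fluorescence from Ub-AMC cleavage, excitation 355 nm, emission 460 nm | Benchmarks: Wells without proteasome as full block, compound-free enzyme plus substrate as uninhibited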
# Vif TR-FRET = HIV-1 Vif–A3G interaction blockers – biochemical, TR-FRET, GST-Vif 1-94, biotin-A3G peptide, dose response retest, primary screen (AID 1117319). TR-FRET GST-Vif / biotin-A3G peptide binding; higher % means a stronger effect; test concentration not given here; strong numbers were not always called active. one-dose inhibition, %; IC50 in µM for titrated hits. 260,000 tested, 0.57% active;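 active = above the screen mean plus three standard deviations and confirmed in dose response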;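 also: Vif residues 1-94 fused to GST binding biotinylated APOBEC3G peptide 110-148; 0% = full assay without inhibitor and 100% = GST in place of GST-Vif; retest series ran down from 100 µM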
# * = called active by the depositor; i = inactive; . = no result given; + = active, no number.
SMILES,HNF4A DNA FP,RanGTP-Imp inh,Ecoli growth,MLL AF4-AF9 inh,FGF22 binding,UCH37 inh,Vif TR-FRET
COc1c(Cl)cc(Cl)cc1C(=O)Nc1ccc(CN2CCOCC2)cc1,0.1,5.3,0.72,-0.9,i,2.1,.
O=C1CN=C(c2ccc(Cl)cc2)c2oc3ccccc3c2N1,3.7,-2.5,0.7,0.4,i,2.4,3%
Cc1nc2ccc(Cl)cc2c(=O)n1-c1ccccc1Cl,0.4,2.8,0.67,-0.4,i,1.6,.
O=C(COc1ccc2ccc(=O)oc2c1)N1C[C@H]2C[C@@H](C1)c1cccc(=O)n1C2,4.2,-2.3,0.71,0.0,i,2.6,.
C[n+]1ccc(-c2ccccc2)c2ccccc21,3.6,0.0,0.68,-0.2,i,-54,.
Cc1ccc(N2C(=O)NC(=O)/C(=C\c3cnc(-c4ccccc4)nc3)C2=O)cc1,-2.9,2.1,.,-2.7,i,.,.
O=C(COc1ccc(Br)cc1)N1CCN(C2CCCC2)CC1,-0.7,-1.0,0.79,.,.,2.0,1%
Cc1c(C)c2ccc(OCC(=O)N3CCC(C(=O)O)(c4ccccc4)CC3)c(C)c2oc1=O,1.4,9.0,0.7,-2.9,i,-101,.
CNC(=O)ON(C(=O)NC)C1N(C)C(=S)SC1(C)C (stereo unspecified),-3.3,2.2,0.67,.,.,5.6,4%
C[C@]12CCC3[C@@H](CCC4=CC(=O)CC[C@@]43CO)C1CCC2=O (stereo partly specified),-3.2,-2.7,0.64,2.4,i,4.9,2%
COC(=O)C(O)(c1c(C)[nH]c2ccccc12)C(F)(F)F (stereo unspecified),-1.6,.,0.7,.,.,-1.2,-2%
Cc1ccc(Cn2cc(C=O)c(-c3ccc(C)cc3)n2)cc1,2.0,-1.3,0.69,-0.8,i,4.4,-4%
CC(C)CCn1c(=O)c(C(=O)Nc2ccccc2S(N)(=O)=O)c(O)c2ccccc21,0.9,-2.3,.,.,.,.,-10%
N/C(=N\[N+](=O)[O-])NCCCC(NC(=O)CNC(=O)c1ccccc1)C(=O)O (stereo unspecified),0.0,0.5,.,-5.0,+,.,11%
CC(=NCc1cccnc1)c1c(O)n(-c2ccc(C)cc2)c(=O)[nH]c1=O,2.4,-2.2,0.71,.,.,6.6,19%
Cc1cccc(C)c1-n1nnnc1C(c1cc2ccccc2o1)N1CCC(n2c(=O)[nH]c3ccccc32)CC1 (stereo unspecified),1.0,.,.,1.4,i,.,.
Cc1ccc(OCC(=O)N2CCN(CC3CC4C=CC3C4)CC2)cc1 (stereo unspecified),3.5,0.6,0.76,.,.,-1.5,2%
Cc1cc(C(=O)C[N+]23CCN(CC2)CC3)c(C)n1-c1ccc(Br)cc1,6.0,1.1,0.67,9.4,i,5.4,1%
CCCCn1nc(C)c(C(=O)O)c1Cl,1.5,1.0,.,-3.6,i,.,-1%
O=C(c1cc(-c2cccnc2)nc2ccc(Cl)cc12)N1CCC2(CC1)OCCO2,-4.7,-2.6,0.72,.,.,4.1,-2%
C=CCn1c(O)c(C(C)=NCC2CCCO2)c(=O)[nH]c1=O (stereo unspecified),-2.5,1.8,0.67,2.1,i,2.9,0%
CCC(C)N1C(=O)NC(=O)C2(Cc3cc(C)ccc3N(C)C2)C1=O (stereo unspecified),-4.2,2.6,0.65,.,.,0.3,17%
Cc1nnc(SCc2nc3ccccc3c(=O)n2-c2ccccc2Cl)n1N,0.2,0.2,0.62,.,.,0.4,0%
CC(=O)c1cn(Cc2ccccc2C#N)c2ccccc12,-2.4,-2.3,0.7,-1.6,i,-1.4,.
C[C@]12CC[C@H](O)CC1C(=O)CC1C2CC[C@@]2(C)C1CC[C@@H]2O (stereo partly specified),0.3,.,.,1.8,i,.,-3%

# One compound at a time, from the list above. Order of values: HNF4A DNA FP | RanGTP-Imp inh | Ecoli growth | MLL AF4-AF9 inh | FGF22 binding | UCH37 inh | Vif TR-FRET
# Profile of Cc1nc2ccc(Cl)cc2c(=O)n1-c1ccccc1Cl = 0.4 | 2.8 | 0.67 | -0.4 | i | 1.6 | .
# Profile of Cc1ccc(N2C(=O)NC(=O)/C(=C\c3cnc(-c4ccccc4)nc3)C2=O)cc1 = -2.9 | 2.1 | . | -2.7 | i | . | .

# Further compounds follow.
SMILES,HNF4A DNA FP,RanGTP-Imp inh,Ecoli growth,MLL AF4-AF9 inh,FGF22 binding,UCH37 inh,Vif TR-FRET
CN1CCCC1C(O)(c1ccccc1)c1ccccc1 (stereo unspecified),-0.9,1.4,0.67,.,.,1.6,-6%
O=[N+]([O-])c1cc(F)c(N2CCCCCC2)cc1N1CCNCC1,5.4,-4.1,0.65,-2.1,i,8.8,.
O=C1NC(=O)C(Cc2ccccc2)C(=O)N1,-4.7,.,0.67,-5.3,i,2.1,8%
O=C(N/N=C/c1c(O)n(CCc2ccccc2)c(=O)[nH]c1=O)c1ccncc1,12,-1.4,0.65,.,.,-20,27%
O=C(O)Cn1cc(/C=C2\C(=O)NC(=O)N(Cc3ccco3)C2=O)c2ccccc21,-38,-1.7,0.7,-4.9,i,-1.2,15µM*
CC1CCCC(C2(O)C(=O)Nc3ccccc32)C1=O (stereo unspecified),-0.8,1.0,0.73,.,.,5.9,0%
CCOP(=O)(OCC)c1ccc(O)cc1,-6.1,-1.7,0.7,2.6,i,-1.1,0%
O=C(C(=O)N1CCOCC1)c1cn(Cc2ccc(F)cc2)c2ccccc12,-2.8,1.0,0.7,-8.2,.,6.9,1%
CCOC(=O)CSCCOc1ccc(C=C2C(=O)NC(=O)NC2=O)cc1OC,0.9,3.0,0.67,-3.5,i,2.8,1%
Cc1cccc(N2CCN(CCc3ccccc3)CC2)c1C,0.2,5.0,0.55,.,.,0.2,4%
COC1=CC(=O)OC(/C=C/c2ccccc2)C1 (stereo unspecified),1.3,-1.5,.,-1.7,i,1.8,31%
O=C(O)C1C2c3ccccc3C(=O)C1(C(=O)O)c1ccccc12 (stereo unspecified),3.6,.,0.66,3.8,i,0.6,2%
CN(C)C1(CNC(=O)c2cc(S(=O)(=O)N3CCOCC3)c(Cl)cc2Cl)CCCCC1,3.5,-3.7,0.68,-0.7,i,3.0,-1%
CN(C)C(=O)Oc1ccc2c(c1)O/C(=C\c1cccc([N+](=O)[O-])c1)C2=O,-2.1,1.6,0.64,-0.1,i,2.8,.
CC(=NCCC(c1ccccc1)c1ccccc1)c1c(O)n(C)c(=O)n(C)c1=O,-0.4,-1.1,0.68,.,.,2.1,.
CC(=O)CC(c1ccc2c(c1)OCO2)c1c(O)c2ccccc2oc1=O (stereo unspecified),-2.2,.,.,-2.3,i,.,6%
O=C1CC=C2C3CC4N(CCC45c4cc(O)c(O)cc4N1C25)CC3=CCBr (stereo unspecified),54,.,.,6.8,i,.,0.7µM*
CCOC(=O)C(O)(c1ccc(N(C)C(=O)COc2ccccc2)cc1)C(F)(F)F (stereo unspecified),12,5.2,0.64,.,.,1.2,.
CN(N)N=Nc1nc2c([nH]1)c(=O)n(C)c(=O)n2C,2.2,1.9,0.68,-1.9,i,-0.5,.
O=C(CN1CCCCC1)c1ccc(F)cc1,-2.8,0.4,0.73,3.9,.,2.4,-10%

# Structures from the list above containing four or more nitrogen atoms, in the order listed:
SMILES,HNF4A DNA FP,RanGTP-Imp inh,Ecoli growth,MLL AF4-AF9 inh,FGF22 binding,UCH37 inh,Vif TR-FRET
Cc1ccc(N2C(=O)NC(=O)/C(=C\c3cnc(-c4ccccc4)nc3)C2=O)cc1,-2.9,2.1,.,-2.7,i,.,.
CNC(=O)ON(C(=O)NC)C1N(C)C(=S)SC1(C)C (stereo unspecified),-3.3,2.2,0.67,.,.,5.6,4%
N/C(=N\[N+](=O)[O-])NCCCC(NC(=O)CNC(=O)c1ccccc1)C(=O)O (stereo unspecified),0.0,0.5,.,-5.0,+,.,11%
CC(=NCc1cccnc1)c1c(O)n(-c2ccc(C)cc2)c(=O)[nH]c1=O,2.4,-2.2,0.71,.,.,6.6,19%
Cc1cccc(C)c1-n1nnnc1C(c1cc2ccccc2o1)N1CCC(n2c(=O)[nH]c3ccccc32)CC1 (stereo unspecified),1.0,.,.,1.4,i,.,.
Cc1nnc(SCc2nc3ccccc3c(=O)n2-c2ccccc2Cl)n1N,0.2,0.2,0.62,.,.,0.4,0%
O=[N+]([O-])c1cc(F)c(N2CCCCCC2)cc1N1CCNCC1,5.4,-4.1,0.65,-2.1,i,8.8,.
O=C(N/N=C/c1c(O)n(CCc2ccccc2)c(=O)[nH]c1=O)c1ccncc1,12,-1.4,0.65,.,.,-20,27%
CN(N)N=Nc1nc2c([nH]1)c(=O)n(C)c(=O)n2C,2.2,1.9,0.68,-1.9,i,-0.5,.

# An excerpt; count on the stated rates, not on these rows.
